# TRPML1 ag = activates the human TRPML1 channel. Q9GZU1. TRPML1-expressing cells, Ca2+ dye fluorescence, FDSS; host cell line not named in the record; reference of the full effect not given here. activation, % (no concentration beside the values). 410,000 compounds, 0.12% hits. AID 624414; in the data active = activation above about 50%; inconclusive = about 30% to 50%; inactive = below about 30%; also: 0% is about no effect; the text of the record puts the active cut at 80%
#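 Tetracycline-induced TRPML1-DL cells are seeded and incubated overnight before loading with a no-wash Ca2+ dye and quencher. Agonist activity is taken from the 110 s fluorescence read following compound pin-transfer on an FDSS, before EC80 54-4 challenge.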
# PINK1 expr mod = changes PINK1 expression; PINK1 immunofluorescence, high-content cytometry, 24 h; AID 624263; 410,000 compounds, 0.2% hits; Potency, µM (series often up to 76.6 µM), for inactives: at the highest dose activation (PINK1 increase), usual class: activators; active = well fitted activation curve with a large enough effect; inconclusive = small, poorly fitted or top-dose-only effect; inactive = flat fitted curve, though single readings scatter; cell line not stated here;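 also: potency is read from the fitted curve at half-maximal effect; % of control where 0% means no effect; nearly all actives have a fitted effect of over 65% in size; a mitochondrial uncoupler was the plate control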
#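 Cells are seeded, rested 12 hours, then given compound at five concentrations or DMSO for 24 hours. After fixation, blocking and antibody staining, PINK1 amount and mitochondrial localization are scored; CCCP serves as control.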
# ClpP mod = qHTS Assay for Activators of ClpP; purified B. subtilis ClpP, FRET peptide cleavage, 20 min; Potency, µM (series often up to 57.5 µM), for the others: at the top dose activity change, negative = active; AID 651965, 2013; 340,000 compounds, 1.9% hits; ATP-dependent Clp protease proteolytic subunit (Bacillus subtilis (strain 168)), P80244; active = well fitted falling curve with a large enough effect; inconclusive = small, poorly fitted or top-dose-only effect; inactive = no such curve, though single readings can be large or run the other way; also: potency is read from the fitted curve at half-maximal effect; the source files actives as falling curves though it sought activators and does not explain the sign; nearly all actives have a fitted effect of over 65% in size; many hits overshoot -100%
# Target sequence (P80244 whole entry, looked up): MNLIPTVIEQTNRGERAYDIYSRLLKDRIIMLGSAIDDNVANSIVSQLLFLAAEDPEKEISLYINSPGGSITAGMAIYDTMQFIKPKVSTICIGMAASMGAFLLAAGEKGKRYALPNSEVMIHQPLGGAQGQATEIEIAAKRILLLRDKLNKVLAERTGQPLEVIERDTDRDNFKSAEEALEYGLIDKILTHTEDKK
#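 Purified B. subtilis ClpP, 10 microg/mL final in Tris/HCl pH8 with KCl, BSA, glycerol and Tween-20, cleaved an Abz/nitrotyrosine-quenched decapeptide. Fluorescence (ex 320, em 430) was read at 0 and 20 min at room temperature. Delta was normalized to 5.8 microM ADEP and DMSO/no-enzyme controls.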
# Sfp PPTase inh = blocks B. subtilis Sfp PPTase activity. Q9F4F7. Biochemical Sfp PPTase activity, qHTS. Potency, µM, inactives show max response, negative = inhibition, usual class: inhibitors. 310,000 compounds, 3.5% hits. AID 1490; active = well fitted inhibition curve with a large enough effect; inconclusive = small, poorly fitted or top-dose-only effect, or another doubt; inactive = no such curve, though single readings can be large or run the other way;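 also: the enzyme is Sfp with the accession as filed and its product quenches rhodamine fluorescence; potency is read from the fitted curve at half-maximal effect; 0% = enzyme reaction without inhibitor and -100% = no enzyme wells; top concentration of the series not given in the record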
#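 Fluorescence-quenching assay with 15 nM Sfp, 5 uM rhodamine-CoA and 12.5 uM BHQ-2-labelled ybbR peptide in pH 7.6 Hepes/MgCl2 buffer. Enzyme was pre-incubated with compound for 15 min at room temperature. Rate was taken from the 30-min fluorescence change (525/598 nm).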
# TRPV1 PAM = enhances activation of the human vanilloid receptor TRPV1; TRPV1-expressing cells, Fluo-8 calcium influx, capsaicin EC20 potentiation; host cell line not named in the record; control for the full effect not named in the record; potentiation, % at 8.33 µM; 320,000 compounds, 0.02% hits; AID 540277; active means potentiation above 80%; inconclusive means 30% to 80%; inactive means below 30%; also: 0% is about no effect
# Target sequence (Q8NER1 whole entry, looked up): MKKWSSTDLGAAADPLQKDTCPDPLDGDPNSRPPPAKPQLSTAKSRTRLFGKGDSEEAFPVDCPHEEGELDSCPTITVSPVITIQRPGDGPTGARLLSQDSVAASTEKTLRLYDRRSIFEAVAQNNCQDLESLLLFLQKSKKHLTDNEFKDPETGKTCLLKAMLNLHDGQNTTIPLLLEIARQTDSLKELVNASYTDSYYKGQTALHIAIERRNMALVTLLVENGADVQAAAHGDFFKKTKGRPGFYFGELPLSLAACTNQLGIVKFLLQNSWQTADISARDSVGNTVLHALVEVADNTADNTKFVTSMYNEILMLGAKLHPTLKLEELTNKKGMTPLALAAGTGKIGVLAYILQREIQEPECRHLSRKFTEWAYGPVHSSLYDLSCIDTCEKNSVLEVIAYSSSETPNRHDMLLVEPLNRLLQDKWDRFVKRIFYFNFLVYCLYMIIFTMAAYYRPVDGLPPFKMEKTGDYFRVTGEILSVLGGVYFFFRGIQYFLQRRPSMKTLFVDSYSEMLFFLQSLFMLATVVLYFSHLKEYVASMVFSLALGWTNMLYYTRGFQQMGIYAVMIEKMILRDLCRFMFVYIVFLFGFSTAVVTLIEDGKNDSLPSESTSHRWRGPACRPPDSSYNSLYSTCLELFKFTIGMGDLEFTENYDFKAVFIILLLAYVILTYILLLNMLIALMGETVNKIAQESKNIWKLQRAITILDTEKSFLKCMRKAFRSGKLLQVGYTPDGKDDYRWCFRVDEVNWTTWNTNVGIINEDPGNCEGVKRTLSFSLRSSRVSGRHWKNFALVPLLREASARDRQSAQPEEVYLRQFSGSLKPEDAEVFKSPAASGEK
#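 Fluo-8 calcium influx in TRPV1-expressing cells, kinetic read (ex 480/em 520 nm). Compound added and read 3 min for agonist activity, followed by capsaicin at EC20 final and 2 min further read for enhancement.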
# TRPML1 blocker = human mucolipin-1 channel inhibition; Q9GZU1; TRPML1-inducible cells, Ca2+ dye fluorescence, FDSS; stronger effect = lower value; inhibition of EC80 agonist-evoked calcium signal; activity change, negative = inhibition, % (concentration not given with the values); 390,000 compounds, 0.02% hits; in the data active means activity change below about -50%; inconclusive means about -30% to -50%; inactive means above about -30%;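 also: stimulus is agonist 54-4 at its EC80 concentration; % is scaled to controls: 0 for no effect and ±100 for the full control effect; the text of the record puts the active cut at -80%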
#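 Calcium fluorescence in TRPML1-DL cells induced overnight with Tet: a 110 s read after compound pin addition, then a 110 s antagonist read after challenge with 54-4 at 4 uM final (EC80).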
# Menin MLL FP FL = menin-MLL binding inhibition, fluorescein peptide | 290,000 tested, under 10 active | AID 1766 | Fluorescence polarization, fluorescein-MLL peptide displacement from menin | FP activity change, % at 61.4 µM; inconclusive = falling polarisation curve, or a change in total fluorescence; inactive = total fluorescence flat and polarisation flat or rising; no compound was filed as active; the % refers to the polarisation; negative = inhibition;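 also: % of control where 0% means no effect; inhibitors lower the polarisation; unlabelled MLL peptide was the positive control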
# An asterisk follows results filed as active; ? = inconclusive; . = no result given; & = joins results of further samples; [ ] = dose if it differs, or a comment.
SMILES,TRPML1 ag,PINK1 expr mod,ClpP mod,Sfp PPTase inh,TRPV1 PAM,TRPML1 blocker,Menin MLL FP FL
Cc1cccc(NC(=O)CSc2nc(=O)n3ccccc3n2)c1C,-0.2,-0.8%,.,.,10.6,9.1,.
NC(c1csc(Nc2cc(NCc3ccco3)ncn2)n1)c1ccccc1Cl (configuration not stated),-0.1,0.6%,-8.1%,.,.,.,.
Cc1oc2c(c1C(=O)Nc1ccc(F)c(F)c1)C1=NCCN1C=N2,-0.5,3.5%,-0.5%,.,.,0.8,.
CC(OC(=O)/C=C/c1ccccc1Cl)C(=O)NC1CCCCC1C (configuration not stated),-0.2,0.2%,-5.2%,.,3.5,-17.7,.
CCc1ccc(NC(=S)N2CCC(NC(=O)c3ccccc3OC)CC2)cc1,0.3,1.1%,.,11.8%,-19.2,21.5,2.9
Cc1ccc(NC(=O)CNC(=O)Cn2c(C)cc3ccccc3c2=O)cc1F,-0.2,1.6%,-1.1%,.,.,-10.8,.
CCOC(=O)c1ccccc1S(=O)(=O)N1CCN(c2nc(-c3cccs3)nc3ccccc23)CC1,-0.2,0.7%,4.1%,.,.,.,.
CCOC(=O)C1(C)CCN1C(=O)c1cccc(OC)c1 (configuration not stated),-0.8,-0.7%,-1.1%,.,.,.,.
CCOC(=O)C(CSCC(=O)c1ccc(Cl)cc1Cl)NC(=O)OC(C)(C)C (configuration not stated),1.7,-0.4%,-2.1%,-13.4%,-19.9,19.5,7.3
CCCSc1nnc(CSc2nc(C)cc(C)n2)n1C,-0.8,5.2%,.,14.1%,?,-13.5,-1.1
CC(O)(c1cccc(F)c1)c1nc(-c2ccc(Cl)cc2)cs1 (configuration not stated),-0.5,15.4%,-2.2%,.,.,.,.
COc1cc(S(=O)(=O)NCc2cccnc2)c(OC)cc1Br,-0.1,-3.1%[38.3 µM],-0.1%,6.0%,1.3,-0.3,2.3
CC(C)[C@H](NC(=O)NCc1ccc(F)cc1)C(=O)O,-0.1,2.7%,0.3%,5.5%,2.8,29.1,-1.3
CC(=O)Nc1cccc(C(=O)NC(C)c2ccc(-n3ccnc3)cc2)c1 (configuration not stated),0.0,-0.4%,.,7.3%,9.4,-8.5,-10.5
Cc1ccccc1/C=N/Nc1nc2ccccc2[nH]1,0.5,8.9%,.,?,-15.9,-2.1,-0.7
O=C(N/N=C\c1cccnc1)c1ccc(Br)s1,0.0,-1.0%,-0.3%,-4.0%,-12.9,1.1,3.6
COc1ccccc1NC(=O)C1=C(C)NC(=O)NC1c1ccc(C)s1 (configuration not stated),-1.6,0.4%,-2.2%,11.5%,-10.3,-0.5,3.1
CCc1ccc(OCCCC(=O)Nc2ccc(S(N)(=O)=O)cc2)cc1,0.9,-0.3%,.,9.0%,-15.5,4.8,-2.3
Cc1ccc(S(=O)(=O)N2CCN(C(=O)c3ccccc3-c3nc4ccccc4s3)CC2)c(C)c1,-0.1,0.7%,-2.7%,.,20.6,-5.2,.
COc1ccc(/C(O)=C2/C(=O)C(=O)N(CC3CCCO3)C2c2cccc(O)c2)cc1 (configuration not stated),0.7,0.6%,-2.3%,11.0%,-14.9,-2.8,-0.2
O=C(COC(=O)Cc1ccccc1F)NNC(=O)c1ccc(Cl)cc1,-0.6,-0.5%,-21.4%,.,-1.9,10.2,.
COc1ccc(CNC(=O)C2CCN(C(=O)N3CCOc4ccc(C)cc43)CC2)cc1,-0.2&0.7,0.5%&-0.2%,-0.3%&7.3%,8.0%,-13.6,-6.2&2.9,1.6
CC1(c2ccccc2)NC(=O)N(CC(=O)Nc2ccccc2C(=O)N2CCCCC2)C1=O (configuration not stated),1.1,-0.5%,-3.7%,.,0.2,12.0,.
COc1ccc(C(=O)N(c2ccc(C)cc2)C2C=CS(=O)(=O)C2)cc1OC (configuration not stated),-0.3,0.7%,.,20.5%,-0.2,-6.4,-4.1
O=C(c1ccccc1)c1ccc2nc(Nc3cc(Cl)ccc3O)c3nncn3c2c1,0.9,1.4%,-1.9%,.,.,4.4,.
COc1ccc(N2CCN(CCCNC(=O)c3c(C)nn(-c4ccc(F)cc4)c3-n3cccc3)CC2)cc1,2.2,-1.1%,-6.1%,.,.,11.2,.
Cn1nc(C(=O)OCC(=O)Nc2ccc3ccccc3c2)c2ccccc2c1=O,0.5,-0.5%,.,11.6%,5.8,-6.7,1.8
Cc1nc2ccn(Cc3cccs3)c(=O)c2cc1C(=O)N1CCN(c2ccccc2)CC1,0.2,-0.2%,-5.2%,.,.,11.4,.
CCNCCC(=O)N1c2ccccc2Sc2ccc(NC(=O)OCC)cc21,-0.1,3.5%,-4.6%,-15.9%,20.9,22.6,0.5
CC1=C(C(=O)Nc2ccccc2C(=O)NC2CCCCC2)SCCO1,-0.5,0.9%,-2.3%,6.3%,-34.9,-12.6,.
Cc1noc(C)c1S(=O)(=O)N(C)Cc1ccccc1,1.8,0.9%,.,1.5%,-2.6,-12.7,-2.2
CN(CC(=O)NCCc1ccc(F)cc1)Cc1cccc(Cl)c1,0.2,0.8%,.,-15.9%,-19.8,22.2,-1.1
COc1ccc(Cn2c(=O)c3cccnc3n(CC(=O)Nc3c(C)cc(C)cc3C)c2=O)cc1,-1.0,6.4%,-1.5%,.,.,-1.8,.
Cc1nn2c(=O)cc(COC(=O)COc3ccccc3C)nc2s1,-1.0,-0.1%,-2.5%,.,.,-6.4,.
O=[N+]([O-])c1ccc(N2CCN(c3ccccc3O)CC2)cc1,0.4,1.0%,.,6.3%,1.6,4.6,.
CCn1cnc2scc(-c3ccccc3)c2c1=O,-0.3,-1.2%,-0.4%,-17.1%,4.0,-12.7,-0.9

# Copied from the list.
# Reading for Cc1nc2ccn(Cc3cccs3)c(=O)c2cc1C(=O)N1CCN(c2ccccc2)CC1 under TRPML1 blocker: 11.4
# Reading for Cc1noc(C)c1S(=O)(=O)N(C)Cc1ccccc1 under TRPML1 ag: 1.8

# New compounds follow.
SMILES,TRPML1 ag,PINK1 expr mod,ClpP mod,Sfp PPTase inh,TRPV1 PAM,TRPML1 blocker,Menin MLL FP FL
Cc1cccc(NC(=O)c2cccc(NC(=O)c3ccco3)c2)c1C,1.1,0.6%,.,.,.,10.0,.
NNC(=S)NCc1ccco1,-0.3,1.1%,-4.9%,39.8µM*,-4.0,0.8,-1.8
COc1ccc(NC(=O)Cn2c(-c3ccc(OC)cc3)cn(-c3ccc(C)cc3)c2=O)cc1,0.8,-0.4%,-9.7%,?,-7.2,1.2,3.8
COc1ccc(NC(=O)COC(=O)Cc2c(F)cccc2Cl)cc1,2.7,-1.1%,1.0%,13.0%,2.5,-7.7,-0.7
CCOc1ccc(-c2cc(C(=O)NCCc3ccc(C)cc3)c3ccccc3n2)cc1,2.8,4.1%,3.5%,.,.,0.4,.
COc1cccc(CC2(CO)CCCN(Cc3cn[nH]c3C3CCCCC3)C2)c1 (configuration not stated),0.0,-1.0%,1.2%,1.3%,15.3,-19.6,13.0
N#Cc1c(NC(=O)CSc2ncc(-c3ccccc3)n2CC2CCCO2)sc2c1CCCC2 (configuration not stated),-0.6,3.5%[38.3 µM],-0.7%,15.4%,1.3,-5.4,0.8
O=C(CN1N=C(c2ccc(Cl)cc2)CCC1=O)NCc1cccnc1,0.3,-0.1%,1.1%,11.1%,-3.2,0.4,-0.6
COc1cc(CN2CCN(C3CCC3)CC2CCO)cc(OC)c1 (configuration not stated),0.8,-1.2%,-9.6%,0.3%,21.8,25.3,-1.2
COc1ccc(C2CC(c3c(Cl)cccc3Cl)n3nc(N)nc3N2)cc1 (configuration not stated),0.0,4.7%,-1.0%,17.7%,.,12.7,1.4
CCC(C)(C)NC(=O)C(c1cccn1C)N(Cc1ccc(C)cc1)C(=O)Cn1nnc2ccccc21 (configuration not stated),-0.3,9.2%,31.6µM*,2.7%,-1.2,8.9,3.7
COc1ccc(-c2ccc3c(c2)S(=O)(=O)c2cccc(C(=O)N4CCN(c5c(Cl)cncc5Cl)CC4)c2C3=O)cc1OC,1.7,-0.2%,-1.3%,.,.,-1.8,.
COc1ccc(C(C(=O)NCC2CCCO2)N(C(=O)c2snc(C(N)=O)c2N)c2ccc(C)cc2)cc1OC (configuration not stated),-0.1,0.1%,.,23.4%,-2.9,40.4,1.5
Cc1cccc2sc(NC(=O)C3c4ccccc4Oc4ccccc43)nc12,2.4,6.5%[38.3 µM],-23.5%,12.1%,1.3,-11.7,0.0
CN(CCc1ccccc1)C(=O)c1cccc(NC(=O)Cc2cccc(NC(=O)C3CCN(C(=O)C4CCC4)CC3)c2)c1,0.1,2.1%,0.5%,.,.,-2.1,.
CCOC(=O)C1CCN(C(=O)C2(NC(=O)Nc3ccccc3Cl)CCCCC2)CC1,-0.4,3.4%,-0.7%,12.0%,4.4,3.7,-1.9
O=C(COC(=O)/C=C/c1ccco1)NCc1ccc2c(c1)OCO2,1.6,1.4%,.,0.5%,-8.4,-8.6,0.7
O=C(COC(=O)C1CC1)NCCc1ccc(Cl)cc1,0.3,-0.3%,.,.,-6.3,14.6,.
Cc1cc(C)n2nc(C(=O)OCC(=O)N(Cc3ccccc3)C(C)C)nc2n1,0.5,-3.2%,.,.,6.4,8.8,.
CCCN(Cc1ccc(N(C)C)cc1)CC1CC1,0.4,.,-0.9%,89.1µM*,21.1,-12.4,-9.7
COc1ccc(-n2nc(C(=O)Nc3cc(C)ccn3)c3c4ccccc4n(C)c3c2=O)cc1,1.4,0.9%,-23.3%,.,.,-8.8,.
Cc1cc(Oc2ccc(Cl)cc2)nc(SCC(=O)c2ccccc2)n1,5.8,6.9%,-2.5%,4.5%,-3.0,86.9,5.6
COc1cc(CNC(=O)c2cccc(COc3ccc(Cl)cc3)c2)cc(OC)c1,2.6,2.2%,3.3%,?,2.4,-3.0,1.8
CCOC(=O)CC(=O)CSc1nc2c(c(C)c1C#N)CCC2,-0.6,0.4%,278.2%,-14.5%,-0.1,-4.5,5.8
CC(=O)Nc1ccc(NC(=O)COc2c(C)cc(Br)cc2C)cc1,-0.4,8.0%,.,11.0%,-18.8,4.6,0.1

# Bioassay records from PubChem BioAssay.
